Rango release inh = qHTS Assay for Inhibitors of RanGTP induced Rango (Ran-regulated importin-beta cargo) - Importin beta complex dissociation; Biochemical FRET Rango-importin beta, RanGTP-induced dissociation; Potency, µM (doses to about 46.1 µM), without a hit: at the top dose activity change, negative = inhibition; Snurportin-1 (Homo sapiens) + GTP-binding nuclear protein Ran (Homo sapiens) + Importin …; AID 540253, 2011; 0.071% of 340,000 active; active means falling FRET ratio curve, often poorly fitted, with flat reads before Ran was added; inconclusive means other falling curves, or compound fluorescence or quenching; inactive means flat or rising ratio curve;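 further: potency means the concentration at half of the fitted maximal effect; % of control where 0% means no effect; nearly all actives have a fitted effect of over 45% in size; -100% = wells without RanGTP and RCC1; the record marks most hits as doubtful in a second field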
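Compounds sat 5 min at room temperature with 0.1 uM Rango biosensor plus 0.25 uM importin beta, then FRET pre-read. RanGTP-RCC1 (0.6 uM Ran, 2mM GTP, 0.2 uM RCC1) added for 45 min, and the CFP/YFP post-read measured blocked complex dissociation.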
miR-21 FLuc = qHTS Assay for Modulators of miRNAs and/orActivators of miR-21; Potency, µM (top dose mostly 38.3 µM), without a hit: at the highest dose reporter change, positive = more light; 340,000 tested, under 10 active; HeLa miR-21 FLuc reporter, luciferase, 48 h; active = well fitted rising curve with a large enough effect; inconclusive = small, poorly fitted or top-dose-only effect; inactive = no such curve, though single readings can be large or run the other way;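 further: % of control where 0% means no effect; miR-21 action dims this reporter so a rising signal means less miR-21 action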
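HeLa cells stably expressing CMV-driven firefly luciferase with a downstream miR-21 binding sequence, endogenously expressing miR-21, were treated with titrations (up to about 40uM final) for 48 hours at 37 degree Celsius. Luciferase luminescence was read after lysis.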
GLA inh pH 4.5 = qHTS Assay for Inhibitors of Human alpha-Galactosidase at pH 4.5 | purified enzyme, 4-MU-alpha-Gal fluorescence, pH 4.5 | 230,000 tested, under 10 active | AID 1467, 2008 | activity change, negative = inhibition, % at 105 µM; inconclusive = small, poorly fitted or top-dose-only inhibition, or a rising curve; inactive = flat fitted curve, though single readings scatter; no compound was filed as active;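 further: 0% = full activity with enzyme and -100% = basal without enzyme; dose as in the result columns while the protocol names 77 µM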
Rango-impB inh = qHTS Assay for Inhibitors of Rango (Ran-regulated importin-beta cargo) - Importin beta complex formation; Potency, µM (doses to about 92.2 µM), for inactives: at the top dose inhibition of complex formation; Rango CFP/YFP FRET sensor + importin beta, 45 min; Importin subunit beta-1 (Homo sapiens), Q14974; 0.031% of 340,000 active; active = rising FRET ratio curve, often small or poorly fitted; inconclusive = mostly compound fluorescence or quenching in the first reads; inactive = flat curves in all reads;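 further: potency means the concentration at half of the fitted maximal effect; 0% = DMSO wells and 100% = buffer wells lacking importin beta; nearly all actives have a fitted effect of over 15% in size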
Target sequence (Q14974 whole entry, looked up): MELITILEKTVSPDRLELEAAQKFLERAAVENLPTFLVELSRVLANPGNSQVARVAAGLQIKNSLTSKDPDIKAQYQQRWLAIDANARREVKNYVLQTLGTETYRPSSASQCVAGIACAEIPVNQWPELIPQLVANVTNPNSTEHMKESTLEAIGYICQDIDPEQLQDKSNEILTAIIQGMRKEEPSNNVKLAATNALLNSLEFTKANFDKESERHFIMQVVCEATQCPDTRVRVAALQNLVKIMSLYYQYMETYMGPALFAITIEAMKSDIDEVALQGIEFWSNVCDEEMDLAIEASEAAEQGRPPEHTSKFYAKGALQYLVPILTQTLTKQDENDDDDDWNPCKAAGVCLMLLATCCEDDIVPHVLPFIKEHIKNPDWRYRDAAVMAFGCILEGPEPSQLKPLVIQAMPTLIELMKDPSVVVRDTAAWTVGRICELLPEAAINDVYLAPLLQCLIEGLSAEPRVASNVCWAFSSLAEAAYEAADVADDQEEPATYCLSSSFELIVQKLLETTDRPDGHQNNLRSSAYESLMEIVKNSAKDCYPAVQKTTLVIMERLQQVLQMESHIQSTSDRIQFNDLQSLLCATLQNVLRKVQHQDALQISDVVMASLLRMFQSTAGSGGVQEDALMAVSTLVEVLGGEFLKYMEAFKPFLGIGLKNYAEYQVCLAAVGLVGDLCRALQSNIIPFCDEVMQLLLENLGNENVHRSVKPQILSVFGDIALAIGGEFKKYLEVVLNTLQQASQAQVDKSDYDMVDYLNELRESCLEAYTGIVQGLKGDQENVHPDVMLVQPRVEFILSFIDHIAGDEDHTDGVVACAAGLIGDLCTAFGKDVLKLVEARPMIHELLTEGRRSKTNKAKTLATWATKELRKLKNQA
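Inhibition scored from the CFP 486 nm/YFP 530 nm FRET ratio 45 min after adding 0.125 microM importin beta to 50 nM Rango biosensor preincubated 5 min with compound (room temperature, PBS with DTT, Tween-20, BSA). No-importin wells as positive control.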
* marks the source's active call; other numbers are inactive results; ? = inconclusive; · = not tested or not shown; & = joins results of further samples.

Keys – A = Rango release inh; B = miR-21 FLuc; C = GLA inh pH 4.5; D = Rango-impB inh
> COc1ccc(CCNC(=O)CSc2nnc(CNC(=O)c3cccs3)o2)cc1OC
  A: -10%	B: 12%	C: 0	D: -4.8%

> O=C(Nc1cccc(F)c1)N1CCCCCC1
  A: 15%	B: -13%	C: ·	D: 2.4%

> CCN(C(C)=O)N(CC)c1nc(Cl)nc(NC(C)C)n1
  A: 5%	B: -3%	C: 18	D: 4.2%

> O=C(CN1CCN(c2ccc(O)cc2)CC1)N(C1CC1)C1CCS(=O)(=O)C1 (stereo not given)
  A: 7%	B: ·	C: ·	D: 2.4%

> CN1CCN(C(=S)c2ccc(-c3cccc([N+](=O)[O-])c3)o2)CC1
  A: 7%	B: -54%	C: -2	D: -0.4%

> Cc1cccc(NC(=O)C2CCCN(c3cnccn3)C2)c1 (stereo not given)
  A: 18%	B: 0%	C: ·	D: 4.7%

> O=C(C(c1ccccc1)c1ccccc1)N1CCN(Cc2ccncc2)CC1
  A: 40%	B: 0%	C: -2	D: 6.6%

> Cc1nnc(SCC(=O)N2CCN(S(=O)(=O)c3ccccc3)CC2)n1Cc1ccccc1
  A: ?	B: -1%	C: -7	D: 3.6%

> CCn1cc(Cl)c(C(=O)Nc2nccs2)n1
  A: 0%	B: -32%	C: ·	D: -1.4%

> Cc1ccc(NC(=O)CSc2nc3[nH]c(=O)cc(O)c3s2)c(Br)c1
  A: -1%	B: ·	C: ·	D: -4.4%

> CC(C)(C)OC(=O)N1CCN(c2ccc(NC(=O)c3ccco3)cc2)CC1
  A: -2%	B: 3%	C: ·	D: -3.4%

> CN(C)c1ccc(/C=C(/C#N)C(=O)Nc2nc3c(s2)CCN(Cc2ccccc2)C3)cc1
  A: ?	B: ·	C: ·	D: ?

> CCN(CC)S(=O)(=O)c1ccc(C(=O)OCCN2C(=O)c3cccc4c(N5CCOCC5)ccc(c34)C2=O)cc1
  A: ?	B: -8%	C: 3	D: ?

> COc1ccc2c(c1)OC[C@H]1[C@H]2N2C(=O)c3cc(OC)c(OC)cc3NC(=O)[C@@]2(C)[C@H]1c1ccccc1
  A: ?	B: ·	C: ·	D: ?

> COc1ccc(NC(=O)C23CCC(C)(C(=O)O2)C3(C)C)cc1 (stereo not given)
  A: -4%	B: -9%	C: -9	D: -4.6%

> CNc1ccc(C(=O)c2ccccc2C(=O)O)cc1[N+](=O)[O-]
  A: -9%	B: -1%	C: -1	D: 3.7%

> Cc1ccccc1C(=O)Nc1ccc2c(C#N)c3nc4ccccc4nc3n2c1
  A: -20%	B: -1%	C: 6	D: ?

> Nc1nc(N)nc(C2C=CCCC2)n1 (stereo not given)
  A: 25%	B: ·	C: ·	D: -0.1%

> O=C(Nc1cnn(C23CC4CC(CC(C4)C2)C3)c1)c1cnn2c(C(F)(F)F)cc(-c3ccco3)nc12
  A: -17%	B: 0%	C: -10	D: 3.6%

> CCCCOC(=O)CSC1=C(C#N)C(c2ccccc2OC)C(C#N)C(=O)N1 (stereo not given)
  A: -9%	B: -7%	C: 14	D: -2.4%

> Cc1occc1C(=O)N1CCN(S(=O)(=O)c2ccccc2)CC1
  A: 19%	B: 1%	C: ·	D: 4.4%

> Cc1oc2cc(OCC(=O)O)ccc2c(=O)c1Oc1ccccc1
  A: 1%	B: -1%	C: 9	D: 0.9%

> O=C(CNC(=O)c1ccc(=O)[nH]c1)Nc1ccc(F)c(F)c1
  A: -3%	B: -2%	C: ·	D: 0.1%

> COC(=O)c1cccc(N(CC(=O)NC2CCCC2)C(=O)CCC(=O)Nc2cc(C)on2)c1
  A: 17%	B: 0%	C: ·	D: -2.9%

> CCN(CC)CCSc1nc(O)c(C(C)C)c(=O)[nH]1
  A: -6%	B: 0%	C: 0	D: 11%

> COC(=O)c1ccc(COC(=O)c2nn(C)c(=O)c3ccccc23)cc1
  A: 4%	B: -20%	C: -10	D: -2.0%

> Cc1ccc(NC(=O)C2CCN(S(=O)(=O)c3c(C)nn(C)c3C)CC2)c(Cl)c1
  A: ?	B: -4%	C: ·	D: 2.1%

> O=C(Cn1cc2c(n1)CCCCC2)NCCCN1CCOCC1
  A: 10%	B: -1%	C: 4	D: -0.3%

> CCOc1ccccc1CN1CCN(CC2CC2)CC1CCO (stereo not given)
  A: -1%	B: 1%	C: ·	D: 0.3%

> CC(C)n1c(C(F)(F)F)nc2cc(C(=O)N3CCOCC3)ccc21
  A: 3%	B: -1%	C: ·	D: -3.7%

> O=C(Nc1cc(C(F)(F)F)ccc1Cl)c1ccncc1
  A: 19%	B: -8%	C: 0	D: -0.2%

> Cc1[nH][nH]c(=O)c1C(c1cc(Br)ccc1O)c1c(C)[nH][nH]c1=O
  A: 5%	B: 0%	C: ·	D: 3.4%

> Cc1cc2c(=O)n(NC(N)=O)c(C)nc2s1
  A: -16%	B: 0%	C: 7	D: ?

> CS(=O)(=O)N(CC(=O)N1CCN(c2ccc(F)cc2)CC1)c1ccc(F)c(Cl)c1
  A: -3%	B: 8%	C: 7	D: -0.7%

> CCN(C(=O)COC(=O)/C=C/c1nc2ccccc2s1)c1c(N)n(Cc2ccccc2)c(=O)[nH]c1=O
  A: -13%	B: ·	C: ·	D: -4.5%

> Cn1c(SCC(=O)N2CCN(c3ccccc3)CC2)nnc1-c1ccccc1
  A: -1%	B: 7%	C: 9	D: -0.6%

> O=C(Nc1ccccc1)Nc1c(F)cccc1F
  A: 1%	B: -29%	C: -6	D: 1.3%

> COc1ccc(Nc2nnc(SCC(=O)NC3CC3)s2)cc1
  A: -15%	B: ·	C: ·	D: 4.5%

> CC(NC(=O)Nc1ccc(Cl)cc1)C1CCCO1 (stereo not given)
  A: 13%	B: -25%	C: -1	D: -0.2%

> COc1ccccc1CC(=O)Nc1cc(S(=O)(=O)N2CCOCC2)ccc1N1CCOCC1
  A: -8%	B: ·	C: ·	D: 2.7%

> CCC(C)Sc1cccc(-c2nc3ccccn3c2NCc2ccccc2)c1 (stereo not given)
  A: ?	B: ·	C: ·	D: ?

> COc1ccc(/C=N/NC(=O)c2ccn[nH]2)cc1Cn1cc([N+](=O)[O-])cn1
  A: -1%	B: -38%	C: -1	D: 2.8%

> CC(=O)c1sc(NC(=O)CN2C(=O)CCC2=O)nc1C
  A: -9%	B: ·	C: ·	D: 2.3%

> CCCCNC(=O)C1CC(=O)N(CCc2ccccc2)C1 (stereo not given)
  A: 13%	B: -3%	C: -1	D: -0.9%

> CCCS(=O)(=O)NCCc1cc2ccc(OC)cc2[nH]c1=O
  A: -1%	B: -26%	C: 0	D: -1.8%

> C[n+]1ccc(C(=O)Nc2ccccc2Cl)cc1
  A: -21%	B: -2%	C: ·	D: -1.0%

> CCOC(=O)N1CCN(C(=O)c2ccc3c(c2)N(Cc2cccc(Cl)c2)C(=O)c2ccccc2S3=O)CC1 (stereo not given)
  A: -1%	B: 13%&12%	C: ·	D: -0.1%

> CCCCn1nc(C(=O)Nc2ccc3c(c2)OCCO3)c2ccccc2c1=O
  A: ?	B: ·	C: ·	D: -0.6%

> COc1cccc(/C=N/NC(=O)c2ccc(CN3c4cccc5cccc(c45)S3(=O)=O)cc2)c1
  A: 51%	B: -20%	C: -4	D: 5.3%

> O=C(Nc1ccnn1C1CCN(CC(O)CO)CC1)C1CCCC1 (stereo not given)
  A: 0%	B: 0%	C: ·	D: 1.3%

Further structures:
Keys – A = Rango release inh; B = miR-21 FLuc; C = GLA inh pH 4.5; D = Rango-impB inh
> Cc1oc2cc3oc(=O)c(CCC(=O)NCCC(=O)O)c(C)c3cc2c1C
  A: -3%	B: 3%	C: ·	D: 3.6%

> CC1=C(C(=O)Nc2ccc(C(=O)N3CCN(c4cccc(Cl)c4)CC3)cc2)SCCO1
  A: -8%	B: 1%	C: ·	D: 2.6%

> Nc1nnc(SCC(=O)NN2C(=O)NC3(CCCCC3)C2=O)s1
  A: 11%	B: -4%	C: -7	D: 0.6%

> Cc1ccc(C(=O)NCCCN2CCOCC2)c(Cl)c1
  A: -6%	B: -35%	C: ·	D: -5.7%

> O=C(COC(=O)Cc1ccc(Br)cc1)Nc1ccc(N2CCOCC2)cc1
  A: -16%	B: ·	C: ·	D: -0.6%

> COc1ccc(N(CC(=O)N2CCCCCC2)S(=O)(=O)c2ccccc2[N+](=O)[O-])c(OC)c1
  A: 10%	B: -5%	C: ·	D: 2.9%

> FC(F)(F)c1cccc(-c2nn[nH]n2)c1
  A: -12%	B: -6%	C: -7	D: 4.2%

> COCCN1C(=O)/C(=C/c2ccc(N3CCCC3)cc2C)SC1=S
  A: -4%	B: 3%	C: -3	D: 15%

> COc1ccc(NC(=O)c2ccccc2NC(=O)c2ccco2)cc1
  A: -1%	B: 7%	C: ·	D: -3.0%

> C=CC(=O)Nc1cccc(N(C)c2ccnc(Nc3ccc(N4CCN(C)CC4)cc3)n2)c1
  A: 5%	B: ·	C: ·	D: 1.3%

> CCc1ccccc1NC(=O)c1ccc(OCc2c(C)noc2C)cc1
  A: 3%	B: ·	C: ·	D: 2.3%

> CCSCc1nnc(SCC(=O)Nc2cc(F)ccc2C)n1C
  A: -1%	B: 2%	C: 3	D: 0.8%

> CCOC(=O)/C(C(N)=NCCCO)=C(/O)c1ccccc1
  A: -16%	B: -5%	C: 12	D: 7.4%

> Cc1ccc(C(c2nnnn2C2CCCC2)N2CCc3ccccc32)cc1 (stereo not given)
  A: -13%	B: -12%	C: -4	D: -4.0%

> Cc1ccc(-n2c(C)cc(C(=O)CN3CCOCC3)c2C)cc1C
  A: 5%	B: -11%	C: -11	D: -5.2%

> Cc1[nH]nc2c1C1(CCN(C(=O)c3ccccc3)CC1)C(C#N)=C(N)O2
  A: 5%	B: -4%	C: 4	D: -0.4%

> COc1ccccc1-n1c(C)cc(/C=C2/C(=N)N3C(=NC2=O)SN=C3S(C)(=O)=O)c1C
  A: ?	B: -27%	C: 5	D: ?

> COc1ccc(N2C(=O)C(CC(=O)Nc3ccccc3)N(Cc3ccc(OC)c(OC)c3)C2=O)cc1 (stereo not given)
  A: -11%	B: -9%	C: -3	D: -0.2%

> CCOc1ccc(Cc2nc(C)c(CC(=O)N3CCCCC3)c(=O)[nH]2)cc1
  A: 12%	B: -5%	C: 1	D: -0.9%

> Cc1ccc(C)c(NC(=O)Cc2nc(CCl)cs2)c1
  A: -4%	B: -2%	C: -1	D: ?

> COc1ccc(OC)c(NC(=O)Nc2ccc3[nH]ccc3c2)c1
  A: -4%	B: ·	C: ·	D: 3.5%

Structural class: those above with fluorine (nine)
Keys – A = Rango release inh; B = miR-21 FLuc; C = GLA inh pH 4.5; D = Rango-impB inh
> O=C(Nc1cccc(F)c1)N1CCCCCC1
  A: 15%	B: -13%	C: ·	D: 2.4%

> O=C(Nc1cnn(C23CC4CC(CC(C4)C2)C3)c1)c1cnn2c(C(F)(F)F)cc(-c3ccco3)nc12
  A: -17%	B: 0%	C: -10	D: 3.6%

> O=C(CNC(=O)c1ccc(=O)[nH]c1)Nc1ccc(F)c(F)c1
  A: -3%	B: -2%	C: ·	D: 0.1%

> CC(C)n1c(C(F)(F)F)nc2cc(C(=O)N3CCOCC3)ccc21
  A: 3%	B: -1%	C: ·	D: -3.7%

> O=C(Nc1cc(C(F)(F)F)ccc1Cl)c1ccncc1
  A: 19%	B: -8%	C: 0	D: -0.2%

> CS(=O)(=O)N(CC(=O)N1CCN(c2ccc(F)cc2)CC1)c1ccc(F)c(Cl)c1
  A: -3%	B: 8%	C: 7	D: -0.7%

> O=C(Nc1ccccc1)Nc1c(F)cccc1F
  A: 1%	B: -29%	C: -6	D: 1.3%

> FC(F)(F)c1cccc(-c2nn[nH]n2)c1
  A: -12%	B: -6%	C: -7	D: 4.2%

> CCSCc1nnc(SCC(=O)Nc2cc(F)ccc2C)n1C
  A: -1%	B: 2%	C: 3	D: 0.8%

Source: PubChem BioAssay (National Center for Advancing Translational Sciences (NCATS))

Only part of the results is shown. The share of hits here may be higher or lower than overall.
